# Screening results as filed in PubChem BioAssay.
# Six1-Eya2 blk: Six1/Eya2 interaction inhibition; activity change, % (concentration not given with the values); AlphaScreen GST-Six1/His-Eya2 binding, biochemical; stronger effect = lower value; control for the full effect not named in the record; Q15475+O00167; AID 651725; 0.56% of 360,000 active; in the data active = activity change below about -65%; inconclusive = about -30% to -65%; inactive = above about -30%; note: % is set by controls: 0 for no effect and ±100 for the full control effect
#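 GST-Six1 + His-Eya2 (5X stock: 250/500 nM); Tris pH 8.0, 300 mM NaCl, 0.05% BSA, 0.02% Tween 20; GSH donor/Ni acceptor beads; 1 h 37 °C dark; AlphaScreen readout.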
# CtBP-E1A blk: CtBP/E1A binding inhibition | AlphaScreen GST-E1A/His-CtBP binding, 1536-well; stronger effect = lower value; control for the full effect not named in the record | activity change, % (concentration not given with the values) | 0.49% of 340,000 active | AID 651724; in the data active means activity change below about -65%; inconclusive means about -30% to -65%; inactive means above about -30%; note: % is set by controls: 0 for no effect and ±100 for the full control effect
#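 In 5 uL wells, 23 nL compound meets equimolar GST-E1A and His-CtBP (5X stock 125 nM each) for 2 h, 37 °C. Beads (5X, 50 ug/mL) then 1 h, 37 °C, dark.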
# PINK1 modulator: PINK1 expression modulation. PINK1 immunofluorescence, high-content cytometry, 24 h. Potency, µM (titrated, usually from 76.6 µM), for inactives: top-dose activation (PINK1 increase), usual class: activators. 0.2% of 410,000 active. AID 624263; active = well fitted activation curve with a large enough effect; inconclusive = small, poorly fitted or top-dose-only effect; inactive = flat fitted curve, though single readings scatter; cell line not stated here;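 note: potency is the fitted concentration of half-maximal effect; % of control where 0% means no effect; nearly all actives have a fitted effect of over 65% in size; a mitochondrial uncoupler was the plate control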
#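 Cells are seeded, rested 12 hours, then given compound at five concentrations or DMSO for 24 hours. After fixation, blocking and antibody staining, PINK1 amount and mitochondrial localization are scored; CCCP serves as control.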
# TRPML1 ag: agonists of human TRPML1 channel; TRPML1-expressing cells, Ca2+ dye fluorescence, FDSS; host cell line not named in the record; reference of the full effect not given here; 0.12% of 410,000 active; activation, % (test concentration not listed); Q9GZU1; in the data active = activation above about 50%; inconclusive = about 30% to 50%; inactive = below about 30%; note: 0% is about no effect; the text of the record puts the active cut at 80%
# Target sequence (Q9GZU1 whole entry, looked up): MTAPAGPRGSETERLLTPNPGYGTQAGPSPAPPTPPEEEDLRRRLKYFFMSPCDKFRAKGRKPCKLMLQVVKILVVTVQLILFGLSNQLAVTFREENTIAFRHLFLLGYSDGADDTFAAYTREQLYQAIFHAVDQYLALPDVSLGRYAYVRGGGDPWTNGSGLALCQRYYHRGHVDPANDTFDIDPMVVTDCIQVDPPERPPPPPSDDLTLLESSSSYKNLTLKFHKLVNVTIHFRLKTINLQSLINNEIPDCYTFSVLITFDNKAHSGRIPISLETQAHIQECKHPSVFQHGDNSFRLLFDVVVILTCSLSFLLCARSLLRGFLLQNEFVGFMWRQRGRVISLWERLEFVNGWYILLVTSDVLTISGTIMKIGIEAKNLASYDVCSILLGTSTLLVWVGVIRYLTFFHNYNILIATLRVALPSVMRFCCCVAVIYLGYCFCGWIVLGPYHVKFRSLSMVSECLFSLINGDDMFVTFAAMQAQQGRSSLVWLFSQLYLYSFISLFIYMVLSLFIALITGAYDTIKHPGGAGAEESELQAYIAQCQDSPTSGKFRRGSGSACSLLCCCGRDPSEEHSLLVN
#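 Agonist activity was taken from a 110 s kinetic Ca2+ dye read on the FDSS after pinning compounds onto TRPML1-DL cells. The cells were seeded at 1,500/well with Tet inducer, incubated about 16 h, then dye-loaded at room temperature.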
# D2 ag: agonists of human D2 dopamine receptor (beta-arrestin); P14416; DiscoveRx PathHunter D2 beta-arrestin, luminescence, 90 min; 100% = 57 uM dopamine signal; activation, % (no concentration beside the values); 0.084% of 360,000 active; AID 624465; in the data active = activation above about 40%; inconclusive = about 15% to 40%; inactive = below about 15%; note: compound concentration not given in the record; the text of the record calls up to 30% inactive
# Target sequence (P14416 whole entry, looked up): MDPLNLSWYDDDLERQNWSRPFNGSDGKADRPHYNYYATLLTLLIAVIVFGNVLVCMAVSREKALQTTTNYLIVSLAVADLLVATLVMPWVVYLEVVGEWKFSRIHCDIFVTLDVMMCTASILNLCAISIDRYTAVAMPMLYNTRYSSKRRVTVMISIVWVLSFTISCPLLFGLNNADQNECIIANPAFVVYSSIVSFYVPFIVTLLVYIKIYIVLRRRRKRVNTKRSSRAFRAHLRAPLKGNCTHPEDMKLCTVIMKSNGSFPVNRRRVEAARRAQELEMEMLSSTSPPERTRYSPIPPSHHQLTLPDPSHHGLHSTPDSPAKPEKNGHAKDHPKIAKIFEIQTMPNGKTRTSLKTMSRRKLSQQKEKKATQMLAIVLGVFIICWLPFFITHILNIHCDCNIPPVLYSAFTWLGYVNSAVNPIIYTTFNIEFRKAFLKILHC
#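 DiscoveRx PathHunter D2 beta-arrestin cells (2,100/well) attached overnight, then compound-stimulated 90 min at 37 C in HBSS/10 mM HEPES/0.1% Tween-20 buffer; beta-galactosidase complementation read by luminescence after 1 h at ambient temperature. Dopamine 57 uM final (EC100) as control.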
# TRPML1 inh: human mucolipin-1 channel inhibition; activity change, negative = inhibition, % (concentration not given with the values); TRPML1-inducible cells, Ca2+ dye fluorescence, FDSS; stronger effect = lower value; inhibition of EC80 agonist-evoked calcium signal; 0.02% of 390,000 active; AID 624415; in the data active means activity change below about -50%; inconclusive means about -30% to -50%; inactive means above about -30%;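 note: stimulus is agonist 54-4 at its EC80 concentration; % is set by controls: 0 for no effect and ±100 for the full control effect; compound concentration not given in the record; the text of the record puts the active cut at -80%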
#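 TRPML1-DL cells, Tet-induced overnight (~16 h, 37 °C) at 1,500 cells/well, were loaded with Ca8 no-wash dye plus quencher for 45-90 min at room temperature. Compounds were pinned during FDSS kinetic reading; agonist 54-4 at EC80 (4 uM final) then added.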
# An asterisk follows results filed as active; ? = inconclusive; · = no result given; [ ] = another dose, or the depositor's remark. Not a hit list; any-hit rate near 1%.
Molecule,Six1-Eya2 blk,CtBP-E1A blk,PINK1 modulator,TRPML1 ag,D2 ag,TRPML1 inh
CC(OC(=O)c1nc(-c2ccccc2)n(-c2ccccc2)n1)C(=O)Nc1cc(Cl)cc(Cl)c1 (stereo not drawn),4,1,0.7%,0.0,-2.3,12
COc1ccc(/C=N\NC(=O)CNC(=O)C2COc3ccccc3O2)cc1[N+](=O)[O-] (stereo not drawn),-8,·,4.8%,1.3,4.1,-3
CCOc1ccc(NC(=O)c2ccc(CN3CCc4ccccc4C3)cc2)cc1,3,2,7.1%,0.7,-3.2,-12
COCc1cc(C)nc2sc(C(=O)Nc3ccccc3C)c(N)c12,23,17,0.7%,-0.8,-0.5,-8
Cc1cc(C)c(OCC(=O)N(Cc2ccco2)Cc2ccco2)c(C)c1,·,·,0.3%,5.6,·,6
CCOC(=O)CCCCCC(=O)Nc1ccc2c(c1)C(=O)N([C@H](C)CO)C[C@H](C)[C@@H](CN(C)C(=O)Nc1ccc(OC)cc1)O2,1,1,-0.6%,0.2,-0.7,-19
COc1ccc(C(=O)Nc2nc(-c3nnn(-c4cc(OC)ccc4OC)c3C)ns2)cc1,·,·,8.8%,0.3,·,1
CCOc1ccc(NC(=O)c2oc3ccccc3c2NC(=O)c2cc3ccccc3o2)cc1,·,·,0.5%,-0.7,·,-7
CCN1C(C#N)=C(C#N)N=C(C)CC1(C)C,2,0,0.0%,-0.5,-6.1,29
C[C@@H]1Cn2cnc(C(=O)N[C@@H](C)C(=O)OC(C)(C)C)c2C(=O)N1,4,0,0.8%,-0.7,-9.8,7

# (list continues)
Molecule,Six1-Eya2 blk,CtBP-E1A blk,PINK1 modulator,TRPML1 ag,D2 ag,TRPML1 inh
OC[C@H]1O[C@@H](c2nc(-c3nc(-c4ccc(F)cc4)no3)cs2)[C@H](O)[C@@H]1O,5,5,1.5%,-0.1,-2.5,-16
O=C(/C=C/c1ccc(S(=O)(=O)N2CCOCC2)cc1)N1CCN(c2ccccc2)CC1,4,·,-0.5%,0.9,4.8,-20
Cc1ccc(C(=O)NCC(=O)OCC(=O)NCCNC(=O)COC(=O)CNC(=O)c2ccc(C)cc2)cc1,-1,0,-1.8%,0.8,-2.0,4
Nc1n[nH]c(-c2ccccc2)c1-c1ccccc1,-5,-11,·,0.5,0.6,-15
CCOc1ccccc1NC(=O)c1ccc(NC(=O)C2CCCO2)cc1 (stereo not drawn),-10,0,0.4%,-0.2,-2.7,-19
COCCNc1nnc(Cc2ccc(OC)c(OC)c2)c(=O)[nH]1,4,0,2.6%,0.2,2.6,-15
Cc1ccc(Cn2c(C)c3cnn(CC(=O)NCc4ccccn4)c(=O)c3c2C)cc1,-18,-25,4.6%,-0.7,-3.1,9
COc1ccc(OCc2cccc(C(=O)N3CCCC3)c2)cc1,0,3,-0.4%,0.1,-2.2,-2
Cc1c(C(=O)N(Cc2ccc(F)cc2)C2CCS(=O)(=O)C2)oc2ccccc12 (stereo not drawn),0,-1,1.5%,0.9,-2.8,-28
COc1ccc(CCNc2oc(COc3ccc(F)cc3)nc2C#N)cc1,0,10,-0.1%,1.0,-4.4,2

# Structural class: the entries above with a furan ring, fused or not (3)
Molecule,Six1-Eya2 blk,CtBP-E1A blk,PINK1 modulator,TRPML1 ag,D2 ag,TRPML1 inh
Cc1cc(C)c(OCC(=O)N(Cc2ccco2)Cc2ccco2)c(C)c1,·,·,0.3%,5.6,·,6
CCOc1ccc(NC(=O)c2oc3ccccc3c2NC(=O)c2cc3ccccc3o2)cc1,·,·,0.5%,-0.7,·,-7
Cc1c(C(=O)N(Cc2ccc(F)cc2)C2CCS(=O)(=O)C2)oc2ccccc12 (stereo not drawn),0,-1,1.5%,0.9,-2.8,-28

# (listing goes on)
Molecule,Six1-Eya2 blk,CtBP-E1A blk,PINK1 modulator,TRPML1 ag,D2 ag,TRPML1 inh
O=C(CCCc1nc2ccccc2s1)NCc1ccccc1,2,-18,0.6%,-0.7,-3.6,-14
COc1ccc(OCCCC(=O)N2CCCc3ccccc32)cc1,2,-2,-2.8%,2.9,0.4,30
CCOC(=O)Cc1csc(NC(=O)c2ccc(Cl)s2)n1,16,0,4.0%,1.0,-1.1,10
CCNC(=O)C1(C)CCCN(Cc2ccc3ccccc3c2Br)C1 (stereo not drawn),0,16,8.1%,-0.7,-3.7,·
COc1ccc(C(=O)NCCc2nnc3ccc(SCC(=O)NCc4ccc(F)cc4)nn23)cc1,-6,-20,0.0%,0.1,-5.0,-7
Cc1ccc(C)c(N2CCN(CCCNC(=O)Cn3ncc4c([nH]c5ccccc54)c3=O)CC2)c1,·,·,6.7%,2.7,·,-7
COc1ccc(Cl)cc1NC(=O)Cn1c(=O)n(Cc2ccco2)c(=O)c2ccc(C(=O)NC3CCCC3)cc21,·,·,5.5%,0.6,·,-26
CCN(CC(=O)Nc1ccc(OC)cc1)C(=O)CSCC(=O)Nc1cc(C)on1,5,-12,-1.0%,0.3,-3.0,0
O=[N+]([O-])c1ccccc1-c1nc(-c2ccc(Br)o2)no1,?,-25,6.6%,2.5,0.2,5
COc1ccc(NC(=O)/C(N=Nc2cccc(S(=O)(=O)Nc3ccc(SC(F)F)cc3)c2)=C(\C)O)cc1,-24,-28,1.7%,0.7,2.0,-10

# Next part.
Molecule,Six1-Eya2 blk,CtBP-E1A blk,PINK1 modulator,TRPML1 ag,D2 ag,TRPML1 inh
COC(=O)CN1C(C(=O)c2ccccc2)=C(OC(=O)c2ccc(F)cc2)c2ccccc2S1(=O)=O,·,·,1.1%,1.1,·,-9
CC1(C)CC(NC(=O)c2cc(Cl)ccc2Cl)CC(C)(C)N1,1,10,-0.4%,0.1,3.8,-3
COc1ccccc1NS(=O)(=O)c1cccc(C(=O)NCC(c2ccccc2OC)N2CCCC2)c1 (stereo not drawn),-3,5,1.4%,-0.8,-4.2,6
COCCNC(=O)COC(=O)/C=C/c1cnc2ccccc2n1,-1,-6,-1.4%[38.3 µM],0.0,-2.9,1
Cn1c(CO)cnc1SCc1ccc([N+](=O)[O-])cc1,0,2,0.5%,-0.5,-3.5,5
CCNc1nc(NCC)n2c(SCC(=O)NCC3CCCCC3)nnc2n1,4,-4,1.9%,2.5,-2.3,3
CCc1ccc(NC(=O)C2CCN(C(=O)N3CC(CC)Oc4ccccc43)CC2)cc1 (stereo not drawn),·,·,-0.5%,4.5,·,-12
CC1CN(C(=O)Nc2ccc(Br)cc2Cl)CC(C)O1 (stereo not drawn),-1,-9,1.3%,0.0,4.3,-4
O=C(c1sc2ccccc2c1Cl)N1CCN(c2ccccn2)CC1,-7,-2,0.3%,0.4,1.8,1
Cc1cccc(-c2nnc(SCC(=O)O)n2Cc2ccccc2)c1,5,9,-1.6%,-0.7,-5.8,-10

# The listing continues.
Molecule,Six1-Eya2 blk,CtBP-E1A blk,PINK1 modulator,TRPML1 ag,D2 ag,TRPML1 inh
COc1ccc(Br)cc1C=NNS(=O)(=O)c1ccc(C)cc1,-24,-9,5.2%,1.2,-15,23
Cc1ccc(C)c(OCCN2C(=O)NC3(CCc4ccccc4C3)C2=O)c1 (stereo not drawn),-11,-13,-0.6%,0.3,-3.6,9
O=C1c2cccnc2C(=O)N1Cc1ccc(S(=O)(=O)N2CCN(c3ccc(Cl)cc3)CC2)cc1,1,7,3.8%,1.3,-0.7,31
Cc1ccnc(NS(=O)(=O)c2cc(-c3cc(C)no3)ccc2C(C)C)c1,-1,-8,6.0%,0.0,1.8,-8
CCCCCN(C(=O)CCC(=O)OCCOc1ccccc1Cl)c1c(N)n(CCCC)c(=O)[nH]c1=O,2,-1,0.7%,1.5,-5.1,-15
CCCC(=O)Nc1sc(C(=O)OC)c(C)c1C(N)=O,-4,-12,-5.1%[38.3 µM],-0.3,-0.4,-3
CCOC(=O)N1CCC(NC(=O)C2CCN(c3ccc(N4CCOCC4)nn3)CC2)CC1,4,7,6.4%[38.3 µM],0.7,-2.2,20
CCCCCC(=O)Nc1nc(C)c(-c2csc(Nc3ccccc3OCC)n2)s1,-6,1,2.9%,-0.7,-6.6,-1
O=C(Nc1ccccc1)c1cc(C2CCCCN2C(=O)CCc2ccccc2)on1 (stereo not drawn),-2,-8,0.8%,-1.1,3.6,·
COc1cccc(/C=N/NC(=O)Cn2nc([N+](=O)[O-])cc2C)c1,-12,1,1.1%,0.5,-4.4,5

# Carrying on:
Molecule,Six1-Eya2 blk,CtBP-E1A blk,PINK1 modulator,TRPML1 ag,D2 ag,TRPML1 inh
COc1ccccc1C(=O)Nc1c2c(nn1-c1ccc([N+](=O)[O-])cc1)CS(=O)(=O)C2,2,9,7.7%,-0.5,-6.0,-8
COc1cccc(OCc2nc(-c3ccc(Br)o3)no2)c1,-5,3,0.7%,0.1,0.6,-6
Cc1cccc(C)c1NC(=O)CN(C)C(=O)c1ccc(-n2cncn2)c([N+](=O)[O-])c1,10,-13,-0.6%,0.5,2.2,11
COc1ccc(OC)c(-c2nc(C)sc2CC(=O)O)c1,4,1,5.3%[38.3 µM],0.6,-1.5,19
Cc1ccc(NC(=O)CCc2c(C)nn(-c3ccc(N4CCOCC4)nn3)c2C)cc1C,0,0,-0.3%,-1.0,-3.3,0
CN(C)c1ccc(C(=O)c2ccccc2C(=O)O)cc1[N+](=O)[O-],1,0,0.0%,0.8,-4.4,-8
COc1ccc(-c2nnc(SCC(=O)NC(C)C)n2CC2CCCO2)cc1OC (stereo not drawn),-2,-3,0.3%,1.3,-0.2,0
CCN1C(=O)C(=O)N(CC(=O)c2cc(C)n(C3CC3)c2C)C1=O,-6,0,0.8%,-0.2,-3.5,-1
COc1c(N2CCN(C(=S)NC3CC4CCC3C4)C(C)C2)c(F)cc2c(=O)c(C(=O)O)cn(C3CC3)c12 (stereo not drawn),1,3,?,0.3,-0.5,?
CCN(c1ccccc1)S(=O)(=O)c1ccc(Oc2ccc(-n3ccnc3)cc2)nc1,-9,-2,1.3%,0.1,-1.5,-26

# Next section.
Molecule,Six1-Eya2 blk,CtBP-E1A blk,PINK1 modulator,TRPML1 ag,D2 ag,TRPML1 inh
Cc1cc(C)cc(CC(=O)N2CCC2(C)C(=O)NS(=O)(=O)c2cccc(OC(F)F)c2)c1 (stereo not drawn),3,3,-0.5%,-0.7,4.7,·
CC(C)C(NS(=O)(=O)c1cccc2cccnc12)C(=O)Nc1ccc(OC(F)(F)F)cc1 (stereo not drawn),·,·,0.8%,1.2,·,-23
O=C(CCCN=C1NS(=O)(=O)c2ccccc21)OCc1ccccc1,2,-2,-1.3%,1.2,0.0,27
N#Cc1c(-c2ccco2)c2c([nH]c1=S)CCCC2,?,-28,-1.8%,0.2,1.6,-3
Cc1ccc(SCC(=O)NCc2ccco2)cc1,-1,-1,-0.7%,0.2,-2.9,16
CSC1CCCCC1(O)CSc1nc2ccccc2o1 (stereo not drawn),1,6,·,0.7,-0.2,2
CSC1=N/C(=C\c2ccc(Br)o2)C(=O)S1,-4,-20,-0.3%,1.0,-0.5,-15
O=C(OCc1nnc(-c2ccccc2)o1)c1cc(=O)[nH]c2ccccc12,-6,8,7.3%,1.3,-0.6,-7
OCC1(CCc2ccccc2)CCN(Cc2cnc(N3CCCC3)s2)CC1,-8,-6,0.4%,-0.5,-3.2,-28
Cc1cccc(OCC(=O)Nc2ccc3oc(=O)ccc3c2)c1C,-2,6,13%,1.3,8.7,-3
